Mtb bLac sens – beta-lactam sensitization of Mtb H37Rv; M. tuberculosis H37Rv growth with meropenem, percent inhibition; hits of this screen are not shown here; inhibition, % at 25 µM; 330,000 tested, 0.27% active; AID 434955;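 active means about 74% or more and at least 40 points above the plate without the antibiotic, then above 30% in a dose series; inconclusive means first-round hits that could not be retested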;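 further: growth measured after seven days incubation then overnight dye step; 0% = bacteria only wells and 100% = bacteria with antibiotic; twin plates without the antibiotic show which effects depend on it; some results filed as inactive read as strong as hits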
YopH inh – blocks Yersinia enterocolitica YopH tyrosine phosphatase | fluorescence Ex485/Em525 | inhibition, %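 (about 10 µM by stock and volumes)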 | 140,000 tested, 0.16% active | AID 898;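 active means inhibition of 50% or more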;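 further: controls were vehicle for no effect and minimum signal wells for full effect; inactives centre near -20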
Mtb H37Rv – M. tuberculosis H37Rv growth inhibitors, H37Rv strain (AID 1626). M. tuberculosis H37Rv growth inhibition; higher % means a stronger effect. inhibition, % at 10 µM, or IC50 in µM where a hit was titrated. 220,000 tested, 0.95% active;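 active means confirmed in a dose series; inconclusive means inhibition above 80% but not taken into the dose series; inactive means below 80% or under 30% at every dose of the series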;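 further: bacteria incubated seven days before Alamar blue readout; 0% = bacteria only wells and 100% = bacteria with antibiotic wells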
RecA splice inh – inhibitors of M. tuberculosis RecA intein splicing; cell-free RecA intein splicing, fluorescence; 290,000 tested, 0.75% active; inhibition, %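 (about 9 µM by stock and volumes)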; P9WHJ3; AID 2221; in the data active means inhibition above about 30%; inconclusive means no clear call, values can overlap the other calls;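 further: 0% = vehicle wells and 100% = reference inhibitor control wells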
Target sequence (P9WHJ3 whole entry, looked up, canonical isoform): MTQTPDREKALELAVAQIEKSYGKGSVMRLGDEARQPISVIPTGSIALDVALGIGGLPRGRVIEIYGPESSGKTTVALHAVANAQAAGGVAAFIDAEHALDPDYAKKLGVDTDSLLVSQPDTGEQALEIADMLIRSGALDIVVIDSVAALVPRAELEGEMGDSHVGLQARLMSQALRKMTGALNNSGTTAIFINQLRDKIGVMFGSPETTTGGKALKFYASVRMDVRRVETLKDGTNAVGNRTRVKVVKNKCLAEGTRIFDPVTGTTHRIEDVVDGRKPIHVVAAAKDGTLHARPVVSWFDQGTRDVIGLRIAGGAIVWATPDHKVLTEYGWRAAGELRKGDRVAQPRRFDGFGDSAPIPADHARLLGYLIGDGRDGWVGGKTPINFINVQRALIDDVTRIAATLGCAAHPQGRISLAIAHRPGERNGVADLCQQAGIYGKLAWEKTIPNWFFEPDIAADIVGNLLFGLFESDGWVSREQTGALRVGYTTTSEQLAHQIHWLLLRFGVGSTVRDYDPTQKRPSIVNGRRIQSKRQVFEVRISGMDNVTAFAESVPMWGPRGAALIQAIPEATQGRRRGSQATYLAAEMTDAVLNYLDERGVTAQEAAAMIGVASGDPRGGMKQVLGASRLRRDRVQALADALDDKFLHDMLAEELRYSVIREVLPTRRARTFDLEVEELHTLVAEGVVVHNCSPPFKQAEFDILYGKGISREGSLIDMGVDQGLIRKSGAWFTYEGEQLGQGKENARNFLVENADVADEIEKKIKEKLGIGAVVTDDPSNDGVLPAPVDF
Arbovirus anti – arbovirus infection inhibition | arbovirus infection cell-based antiviral screen | inhibition, % at 10 µM | 200,000 tested, 0.37% active | AID 1251;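 active means inhibition from about 30%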;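 further: bluetongue infection of BSR cells; cell survival read as ATP light after 72 h; 0% = infected wells without compound and 100% = uninfected wells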
Arbovirus anti repeat – second read-out of Arbovirus anti, no call of its own (marks repeat the call); inhibition, %; measured here: 10K subset replicate screen; many hits read low in the repeat;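 first of two repeat runs on a subset; 0% = infected and 100% = uninfected wells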
Active calls of the source: *; ? = inconclusive; . = no result given.

Preview:
SMILES	Mtb bLac sens	YopH inh	Mtb H37Rv	RecA splice inh	Arbovirus anti	others
CCn1c(C)nc2cc(C(=O)N/N=C/c3cccc(O)c3O)ccc21	-2	.	-6%	-14	-4
CCCCN(CC)C(=O)CSc1nc2n[nH]c(C)c2c(=N)n1-c1cccc(C)c1	-4	.	19%	5.4	-25
CCCNCc1cc(Cl)c(OCC)c(Cl)c1	-1	-50	-2%	-0.3	6
Cc1cc(Cl)cc2c(N=Nc3ccccc3C(=O)O)c(O)[nH]c12	13	.	.	2.3	.
CCc1ccc(CC2(O)CC(C)N(C)CC2C)cc1 (centres undefined)	-3	-14	-3%	0.5	-1
COc1ccc(Br)cc1CN(C)C(=O)c1ccncc1	-4	.	.	-1.7	.

This part in full, repeating the preview:
SMILES	Mtb bLac sens	YopH inh	Mtb H37Rv	RecA splice inh	Arbovirus anti	others
CCn1c(C)nc2cc(C(=O)N/N=C/c3cccc(O)c3O)ccc21	-2	.	-6%	-14	-4
CCCCN(CC)C(=O)CSc1nc2n[nH]c(C)c2c(=N)n1-c1cccc(C)c1	-4	.	19%	5.4	-25
CCCNCc1cc(Cl)c(OCC)c(Cl)c1	-1	-50	-2%	-0.3	6
Cc1cc(Cl)cc2c(N=Nc3ccccc3C(=O)O)c(O)[nH]c12	13	.	.	2.3	.
CCc1ccc(CC2(O)CC(C)N(C)CC2C)cc1 (centres undefined)	-3	-14	-3%	0.5	-1
COc1ccc(Br)cc1CN(C)C(=O)c1ccncc1	-4	.	.	-1.7	.
CC(C)N1CCC(=NNC(=O)c2ccccc2[N+](=O)[O-])CC1	3	-25	-5%	-3.7	4
CC(C)(C)c1ccc(-c2nc3c(C#N)c(-c4ccc5c(c4)OCO5)ccn3n2)cc1	17	-25	17%	-2.3	-18
Cc1ccc(NC(=O)c2cc(C)nc3ccccc23)c(C)c1	7	.	.	2.1	.
CCOc1ccccc1-c1noc(CCC(=O)Nc2cccnc2)n1	-2	.	.	-2.0	.
O/N=C/c1ccc(OCc2ccccc2)c(Cl)c1	42	-35	20%	11	-10
CN(CC(=O)Nc1ccc(Cl)cc1)Cc1cc(=O)n2ccsc2n1	1	.	8%	-1.2	-5
CC(=O)Nc1ccc(NC(=O)/C=C/c2ccccc2)cc1	-1	.	4%	-0.1	-2
CCc1ccc(OC)c(S(=O)(=O)N2CCN(C(=O)c3ccco3)CC2)c1	-4	.	.	-1.0	.
CCOC(=O)N1CCC(NC(=O)C(Cc2ccccc2)NC(=O)c2ccco2)CC1 (centres undefined)	-9	-9	-9%	-2.2	0
CC(C)(C)C(=O)Nc1cc(S(=O)(=O)Nc2ccc(Cl)cc2)ccc1Cl	-2	-24	5%	1.9	8
CCN(CC)S(=O)(=O)c1cccc(NC(=S)NC(=O)/C=C/c2ccc(S(=O)(=O)N3CCOCC3)cc2)c1	-2	-40	0%	3.4	2
Cc1cc(C)c(C#N)c(SCC(=O)Nc2ccc(S(=O)(=O)Nc3ncccn3)cc2)n1	12	.	.	-0.5	.
Cc1ccc(N2C(=O)CS/C2=N\C(=S)Nc2ccccc2)cc1	-4	.	-3%	-0.7	.
Cc1nc2ccc(-c3nc4ccc(N)cc4[nH]3)cc2[nH]1	-1	.	-3%	4.4	-1
Cc1ccccc1C(=O)NC1CC2CCCC(C1)N2Cc1ccccc1 (centres undefined)	-10	.	.	0.6	.
O=c1cc(-c2ccc(O)cc2)oc2c([C@@H]3O[C@H](CO)[C@@H](O)[C@H](O)[C@H]3O)c(O)c([C@@H]3O[C@H](CO)[C@@H](O)[C@H](O)[C@H]3O)c(O)c12	-6	-6	4%	-0.5	14
CCC(C)N(C)Cc1cccc(C2(O)CCN(S(=O)(=O)c3ccc(F)cc3)CC2)c1 (centres undefined)	-11	-32	-3%	1.0	3
Cc1cc(C)c(S(=O)(=O)n2nc(C)c(Br)c2C)c(C)c1	8	-32	-1%	-5.4	5
COC(=O)Cn1nc(C)c2ccccc2c1=O	1	-13	-6%	1.0	-3
SMILES	Mtb bLac sens	YopH inh	Mtb H37Rv	RecA splice inh	Arbovirus anti	others
O=C(COC(=O)c1ccc(O)cc1O)c1ccc2c(c1)OCO2	?	.	.	2.5	.
COc1ccc(NCC(=O)n2c(C)c(C)c3ccccc32)cc1OC	48	.	9%	3.8	.
CCOC(=O)C1CCN(C(=O)CN(c2ccc(OC)cc2)S(=O)(=O)c2c(C)noc2C)CC1	0	-50	-7%	.	0	Arbovirus anti repeat=3
CCOC(=O)Cn1c2c(c(-c3ccccc3OC)cc1=O)CCCC2	98	-29	21µM*	13	0
Cc1ccc(S(=O)(=O)N(c2ccc(Br)cc2)C2C=CS(=O)(=O)C2)cc1 (centres undefined)	0	.	-1%	1.1	2
CN1CCN(C(=O)CN(c2cccc(Br)c2)S(=O)(=O)c2ccccc2)CC1	1	.	5%	-0.3	3
CCCCCc1nc2c(=O)n(C)c3ccccc3c2o1	1	-20	3%	0.3	4
CC1(C)COC(c2cccn2Cc2ccccc2Cl)=N1	-5	-26	-2%	0.0	2
Cc1ccc(Cn2nc(C)cc2C(=O)Nc2ccc(Cl)cc2)cc1	1	.	.	1.8	.
N#Cc1c(NCCN)nc(-c2ccco2)c2c1CCCC2	-2	6	-3%	-7.4	-32
COc1ccc(CNC(=O)C2CCN(S(=O)(=O)N3CCCCC3)CC2)cc1	10	.	.	-1.3	.
O=C(Nc1ccc(F)c(Cl)c1)c1ccc2c(=O)n3c(nc2c1)CCCCC3	-3	-20	6%	-1.4	1
Cc1ccc(/C=N/NC(=O)C[n+]2ccccc2)o1	-5	.	-10%	6.4	-5
COc1ccc(C2C(C#N)=C(N)N(N(C)C)C3=C2C(=O)CC(C)(C)C3)cc1 (centres undefined)	0	.	.	-0.9	.
CCN(CC(=O)NC1CCS(=O)(=O)C1)C(=O)COc1ccccc1-c1ccccc1 (centres undefined)	0	-32	5%	2.6	-1
C[C@H](NC(=O)C1CCN(S(=O)(=O)c2ccccc2)CC1)C(=O)NCc1ccccn1	-2	.	.	0.2	.
C=C(C)CNC(=S)N/N=C/c1ccco1	95	.	?	-2.0	.
CN(C)/C=C1/C=C(C=O)OC1=O	-6	.	0%	-3.5	.
C=CCn1c(SCc2ccccc2Cl)nnc1-c1sc2nc(C)cc(C)c2c1N	2	.	-3%	-6.5	.
c1coc(Cn2c(-c3ccco3)nc3ccccc32)c1	47	-31	1%	6.1	2
OCCCNc1cc(-c2ccccc2)nc2cc(-c3ccc(F)cc3)nn12	58	.	.	-7.9	.
COc1ccc(C(=O)CSc2nnnn2Cc2ccccc2)cc1	-7	-32	8%	-1.4	6
Nc1c(SCCC(=O)O)ccc2c1C(=O)c1ccccc1C2=O	4	.	.	22	.
O=C1CC(N(C(=O)c2ccco2)c2ccc(F)cc2)C(=O)N1c1ccc(F)cc1 (centres undefined)	-17	-8	-5%	-0.7	-2
Cc1c(CNC(=O)C2CC2)c(-n2cccc2)n(Cc2ccccc2)c1C	4	.	5%	1.9	3

Three compounds out of the list, arranged by number of heavy atoms, smallest number first:
SMILES	Mtb bLac sens	YopH inh	Mtb H37Rv	RecA splice inh	Arbovirus anti	others
C=C(C)CNC(=S)N/N=C/c1ccco1	95	.	?	-2.0	.
COc1ccc(CNC(=O)C2CCN(S(=O)(=O)N3CCCCC3)CC2)cc1	10	.	.	-1.3	.
CCN(CC(=O)NC1CCS(=O)(=O)C1)C(=O)COc1ccccc1-c1ccccc1 (centres undefined)	0	-32	5%	2.6	-1

The list continues.
SMILES	Mtb bLac sens	YopH inh	Mtb H37Rv	RecA splice inh	Arbovirus anti	others
Cc1c(NN=C(C#N)C#N)c(=O)n(-c2ccccc2)n1C	2	.	-11%	2.4	3
O=C(c1ccoc1)N1CCC2(CC1)Oc1ccc(Cl)cc1C(=O)C21CC(c2cccnc2)=NO1 (centres undefined)	-4	.	0%	-2.4	.
C/C(=N\NC(=O)c1cc([N+](=O)[O-])cc([N+](=O)[O-])c1)c1ccco1	99	.	?	.	-7
CC(=O)C(C)Oc1ncn(-c2ccccc2)n1 (centres undefined)	-14	-18	4%	-0.4	-4
COc1ccc(C2Nc3ccccc3C(=O)N2NS(=O)(=O)c2ccccc2)cc1 (centres undefined)	-6	.	4%	-2.4	1
COc1ccc(-c2nnc(CSc3nc4ccccc4c(=O)n3CC(C)C)o2)cc1OC	7	-29	-1%	2.6	0
O=C(O)CN1C(=O)SC(Nc2ccccc2)C1=O (centres undefined)	-3	-21	6%	0.8	-1
O=C1CC(c2ccccc2)CC(O)=C1C=NCCN1CCOCC1 (centres undefined)	6	-49	-8%	1.0	5	Arbovirus anti repeat=10
O=C(Cc1ccc(Cl)cc1)Nc1ccc2oc(=O)ccc2c1	4	.	2%	1.0	.
Cc1ccc(NC(=O)OCc2cc(-c3ccccc3)on2)cc1	36	.	?	-5.3	3
CCN1CCN(C(CNS(=O)(=O)c2ccc(Cl)cc2)c2cccnc2)CC1 (centres undefined)	-9	.	.	-4.8	.
CC(=O)Nc1ccc(N2C(=O)CSC2c2ccccc2)cc1 (centres undefined)	-4	.	.	7.9	.
Cc1cc(N2CCN(c3cccc(C(F)(F)F)c3)CC2)n2nc(C)nc2n1	-8	12	21%	1.8	-9
COc1cc(OC)c(N(C)S(=O)(=O)c2cccc(C(=O)OCC(=O)NCc3ccco3)c2)cc1Cl	1	.	-5%	6.8	3
Cc1ccc(NC(=O)C(OC(=O)c2ccc(O)cc2)c2ccccc2)cc1Cl (centres undefined)	4	-34	-2%	18	-45
COc1ccc(C(=O)n2cc(C(C)=O)c3ccccc32)cc1	12	.	.	-0.1	.
Cc1ccc2cccc(NC(=O)C(F)(F)F)c2n1	-2	-12	1%	3.4	.
Cc1ccc(C)c(OCCN2CCOCC2)c1	-2	.	.	-0.8	.
O=c1ccc(C(F)(F)F)cn1Cc1cc(=O)n2cc(Br)ccc2n1	3	.	7%	0.3	8
CC(=O)c1ccc(N2CCN(CC(O)COC(c3ccccc3)c3ccccc3C)CC2)cc1 (centres undefined)	94	.	.	9.6	.
O=C(COC(=O)c1ccc2ccccc2n1)c1ccccc1	1	.	-2%	0.1	4
COc1ccc(CNCC(O)(c2ccc(F)cc2)c2ccc(F)cc2)cc1	3	.	2%	0.8	2
COc1cc(OC)c(NS(=O)(=O)c2cn(C)cn2)cc1Cl	-17	.	.	1.4	.
CC(C)c1ccccc1NC(=O)c1cnccn1	12	34	-2%	0.6	8
CCOC(=O)N1CCC2(O)CCCCC2C1c1ccc(F)cc1 (centres undefined)	-4	-26	1%	1.5	-1
SMILES	Mtb bLac sens	YopH inh	Mtb H37Rv	RecA splice inh	Arbovirus anti	others
O=S(=O)(Nc1nc2ccccc2nc1NCc1ccco1)c1ccc(Cl)cc1	2	-28	2%	-1.4	14
COCCCNC(=S)N1CCN(C)CC1	-3	.	3%	-29	.
O=C(COC(=O)C1C2CC3OC(=O)C1C3C2)Nc1cccc(C(F)(F)F)c1 (centres undefined)	-5	.	.	-1.1	.
Cc1ccc(C2N=C(N)Nc3nc(=O)c4ccccc4n32)cc1 (centres undefined)	-5	.	-5%	0.9	.
Cc1nc(C(=O)N2CCc3c([nH]c4ccccc34)C2c2ccccn2)cs1 (centres undefined)	2	.	-11%	-1.2	-3
COc1ccc(S(=O)(=O)n2[nH]c(=O)c(CCO)c2C)c([N+](=O)[O-])c1	0	.	3%	-4.8	8
CN1CCN(S(=O)(=O)c2ccccc2)CC1	-4	.	.	-0.2	.
O=C(/C=C/c1ccc(Cl)cc1)NC(=S)N1C[C@H]2C[C@H](C1)c1cccc(=O)n1C2	-2	.	.	9.2	.
Cc1ccc(C(=O)Nc2c3c(nn2-c2ccccc2)CS(=O)(=O)C3)cc1C	-1	.	.	-0.8	.
CCN1CCN(CCNC(=O)c2ccc3c(c2)N(Cc2cccc(Cl)c2)C(=O)c2ccccc2S3=O)CC1 (centres undefined)	-3	.	.	0.8	.
Cn1c(-c2ccccc2)c[n+]2c1CCCCC2	4	.	-1%	0.5	2
CC1CC(C)CN(CCOc2cccc(Cl)c2Cl)C1 (centres undefined)	0	4	4%	-0.4	-8
NS(=O)(=O)c1cccc(NC(=O)CC23CC4CC(CC(Br)(C4)C2)C3)c1	4	.	.	-0.4	.
O=c1[nH]cnc2c1N=C(c1cccc([N+](=O)[O-])c1)CC(c1ccccc1)N2 (centres undefined)	-10	.	7%	-5.1	0
Cc1ccc(S(=O)(=O)NCC(c2ccccc2)N2CCN(CCC#N)CC2)cc1 (centres undefined)	-2	11	-6%	-0.8	1
Cc1ccccc1CN1CCN(C(=O)CC(C)C)CC1	-3	.	.	1.2	.
Cc1ccc(NC(=O)CSc2nnc([C@H](C)NC(=O)OC(C)(C)C)o2)c(C)c1	23	.	2%	0.9	.
COCCNC(=O)CNC(c1ccccc1)c1ccccc1	-7	.	3%	-1.4	5
CNc1nc(N)nc(OC(C(F)(F)F)C(F)(F)F)n1	-6	.	2%	-1.0	5

Assay outcomes as filed in PubChem.

The list is partial; count on the stated rates, not on these rows.
